# PMP22 txn prim – PMP22 gene transcription modulation; S16 Pmp22-F2sN Schwann cells (luciferase reporters placed in the Pmp22 gene), FLuc/NLuc coincidence luminescence, 24 h; Potency, µM (highest dose often 57.5 µM), for the others: at the top dose activity change, negative = inhibition, actives largely listed as inhibitors; 43,000 compounds, 2% hits; active = clear falling dose curves in both reporters; inconclusive = both reporters move, but less clearly or upward; inactive = either reporter flat; the % is the NLuc reporter signal; note: % is set by controls: 0 for no effect and ±100 for the full control effect; some results filed as inactive show a strong effect at the top dose
#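 qHTS, 1536-well. Cells seeded, compounds added by pin tool, 24 h 37C. Nano-Glo reagent 1 (lysis/FLuc), 10 min RT, read; Stop&Glo, 10 min RT, read NLuc.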
# HTT prom inh – inhibits huntingtin promoter activity; HEK293 HTT promoter firefly luciferase reporter (activity 0% = vehicle and -100% = no light), 24 h; Potency, µM (series often up to 57.5 µM), for inactives: at the top dose activity change, negative = inhibition, most hits filed as inhibitors; 48,000 compounds, 0.93% hits; active = well fitted inhibition curve with a large enough effect; inconclusive = small, poorly fitted or top-dose-only effect; inactive = no such curve, though single readings can be large or run the other way; note: nearly all actives have a fitted effect of over 50% in size
#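 Luminescence was read after Dual-Glo reagent and a 10 min room-temperature incubation. Values were normalized to vehicle (0% activity) and zero RLU (-100% activity). Reporter HEK293 cells had been exposed to compounds (up to 57.5 uM final) for 24 h.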
# An asterisk follows results filed as active; ? = inconclusive; nt = no result given; [ ] = dose if it differs, or a comment. Potency is the fitted concentration of half-maximal effect.
molecule | PMP22 txn prim | HTT prom inh
CCc1ccccc1NC(=O)C(CC)Sc1ncnc2c1sc1ccccc12 (centres undefined) | -24% | 5%
CC(NC(=O)CN(C)S(=O)(=O)c1ccc2c(c1)c(=O)n(C)c(=O)n2C)c1ccccc1 (centres undefined) | -11% | -7%
Brc1cccc(-c2nnc(CN3CCN(c4ccccn4)CC3)o2)c1 | -28% | -11%
COc1cccc(N2CCN(S(=O)(=O)c3ccc(-c4cnc(C5CC5)o4)cc3)CC2)c1 | ? | -22%
Cc1cc(C)c2c(CC(=O)Nc3ccc(F)cc3)coc2c1 | -55% | -28%
Cc1ccc(Cl)cc1NC(=O)C(Cc1ccccc1)NS(=O)(=O)c1cccc2nsnc12 (centres undefined) | 6% | ?
CCOc1ccc(N(Cc2ccccc2)C(=O)c2nc(SCC)ncc2Cl)cc1 | ? | ?
COc1ccc(C(=O)NCC(c2cccnc2)N2CCN(c3ccccc3)CC2)cc1 (centres undefined) | ? | ?
COc1ccc(NC(=O)CSc2nc(-c3cccs3)cc(C(F)(F)F)n2)cc1Cl | ? | ?
Cc1ccc2oc3c(c(=O)c2c1)C(c1ccc(O)cc1)N(Cc1ccc2c(c1)OCO2)C3=O (centres undefined) | ? | ?
O=C(Cn1cccc1C(=O)c1ccccc1)NCc1ccc(F)cc1 | ? | 5%
COc1cc(C(=O)n2nc(C)c(Sc3ccc(Cl)cc3)c2C)cc(OC)c1OC | -4% | -27%
CCOC(=O)c1cc2c(=O)n3ccccc3nc2n(Cc2ccco2)c1=NC(=O)c1ccc(OCC)cc1 | 4% | -19%
O=c1[nH]c2ccc(NCc3ccc(-c4ccc(Cl)cc4)o3)cc2[nH]1 | -11% | -28%
Cc1ccc(CCNC(=O)CCCn2c(=O)c3ccccc3n(CC(=O)Nc3cc(Cl)ccc3C)c2=O)cc1 | ? | 1%
CCN(C(=O)Cn1c(=O)n(CCCS(=O)(=O)C2CCCCC2)c(=O)c2ccccc21)c1cccc(C)c1 | ? | -2%
Cc1c(-c2ccccc2)nc2c(Cl)cccc2c1C(=O)OCC(=O)c1ccc(F)cc1 | -38% | -5%
COc1ccc(OC)c(CC2C(=O)Nc3ccc(Br)cc32)c1 (centres undefined) | ? | 20µM*
Cc1ccc(C(C(=O)NC2CCCCC2)N(C)Cc2ccccc2)cc1 (centres undefined) | -43% | -10%
Cc1ccc(Cl)cc1N1CCN(C(=O)c2cc3c(=O)oc4ccccc4c3s2)CC1 | ? | -17%
Cc1ccc(NC(=O)Cn2c(=O)oc3cc(S(=O)(=O)NCc4ccccc4)ccc32)cc1 | ? | ?
COc1ccc(-c2cc(C(=O)NCCc3ccccc3)c3c(-c4ccccc4)[nH]nc3n2)cc1 | ? | -5%
CCOc1ccc(NC(=O)CC2C(=O)N(c3ccccc3)C(=O)N2CCc2sccc2C)cc1 (centres undefined) | ? | -30%
COc1cccc(Cc2nc3ccccc3nc2SCC(=O)Nc2cccc(C)c2)c1 | -27% | -3%
CCc1cccc(NC(=O)c2cc3c(=O)n(Cc4ccccc4)ccc3nc2C)c1 | ? | ?
CN1C(=O)c2ccccc2C1=O | nt | 8%[116 µM]
Cc1ccc(CNC(=O)CN2C(=O)CSc3c2c(C)nn3-c2ccccc2)cc1 | -25% | -13%
COC(=O)c1ccccc1N(C)S(=O)(=O)c1cc2c3c(c1)CC(=O)N3CCC2 | ? | -8%
Cc1ccc(NC(=O)c2nnn(CC(=O)Nc3ccc(C)c(Cl)c3)c2N)c(C)c1 | -8% | 6%
COc1ccc(C)cc1NC(=O)CSc1nc2ccccc2nc1N1CCOCC1 | ? | ?
CCOc1ccc(C(c2c(O)cc(C)n(CCOC)c2=O)N2CCN(c3ccccc3)CC2)cc1 (centres undefined) | -13% | -4%
Cc1ccc(C)c(NC(=O)CCCN2C(=O)C(c3ccccc3)Oc3cccnc32)c1 (centres undefined) | ? | -29%
CCCCCCCCc1ccc(CCC(N)(CO)CO)cc1 | nt | -11%
CCCN1CCN(CCCNC(=O)c2c(C)nn(-c3ccc(F)cc3)c2-n2cccc2)CC1 | -14% | -28%
Cc1nc2ccc(S(=O)(=O)CCC(=O)Nc3ccc(Cl)cc3)cc2s1 | 6% | -17%
Cc1ccccc1-c1nn2c(=O)cc(CN3CCN(C(=O)c4ccccc4Br)CC3)nc2s1 | -30% | -1%
CCN(C(=O)C1CCN(S(=O)(=O)c2cc(Br)cc3c2N(C(C)=O)CC3)CC1)c1cccc(C)c1 | 8.9µM* | 6%
CCOC(=O)c1cnc2ccc(Br)cc2c1NCCN1CCOCC1 | ? | -4%
CCc1ccccc1NC(=O)c1ccc2[nH]c(C)c(C)c2c1 | -5% | 54%[activator]
O=C(Cn1c(=O)n(-c2ccccc2)c(=O)c2c3c(sc21)CCCC3)Nc1ccc(F)cc1F | -2% | -4%
COc1ccc(NC(=O)C2CCN(S(=O)(=O)c3ccc4[nH]c(=O)ccc4c3)CC2)cc1Cl | -7% | -12%
COc1ccc(CCN2C(=O)c3oc4ccc(F)cc4c(=O)c3C2c2ccc(C(C)(C)C)cc2)cc1 (centres undefined) | -9% | -10%
O=C(CCC1N=C2c3ccccc3N=C(SCc3ccccc3F)N2C1=O)NCc1ccc(F)cc1 (centres undefined) | ? | -11%
CCn1cc2nc(SCC(=O)Nc3ccccc3C(F)(F)F)n(Cc3ccc(C)cc3)c(=O)c2n1 | ? | ?
COc1cccc(CNC(=O)c2ccc3c(=O)n4nc(Nc5ccccc5)sc4nc3c2)c1 | ? | ?
Cc1ccc(-c2nnc3c4ccccc4c(C)nn23)cc1NC(=O)c1ccccc1 | -29% | 11%
Cc1ccc(-c2nn3c(-c4ccccc4)nnc3c3ccccc23)cc1 | 0% | -9%
Cc1cc(C)cc(OCCSc2nc3ccc(NC(=O)COc4ccccc4)cc3s2)c1 | -32% | -31%
O=C(Nc1ccc2nc(SCc3ccccc3)sc2c1)c1cccc(F)c1 | ? | -14%
CCc1ccc(NC(=O)CSC2=Nc3ccccc3C3=NC(CC(=O)NC4CCCCC4)C(=O)N23)cc1 (centres undefined) | ? | 11%
Cc1cc2oc(C(=O)Nc3ccc(S(=O)(=O)N(C)c4ccccc4)cc3)cc(=O)c2cc1C | 2% | -5%
CCOc1ccccc1-n1cc2c(c1-c1ccc(OC)cc1)c(=O)n(C)c(=O)n2C | -14% | -4%
Cc1cc(C)cc(S(=O)(=O)c2cn(C)c3cc(N4CCCC4)c(F)cc3c2=O)c1 | 24% | -11%
O=C(O)c1ccc(CSc2nc3cccnc3n2Cc2cccc(F)c2)cc1 | 10% | -1%
Cc1noc2ncnc(N3CCN(c4cccc(C(F)(F)F)c4)CC3)c12 | ? | ?
CC(C)c1ccc(S(=O)(=O)c2cnc(SCC(=O)Nc3cccc(C(F)(F)F)c3)nc2N)cc1 | ? | ?
COc1ccc(OC)c(NC(=O)CSc2cn(CC(=O)N3CCCCCC3)c3ccccc23)c1 | ? | ?
Cc1cccc(N2CCN(C(=O)c3cccn3-c3nnc(N4CCCCC4)s3)CC2)c1C | ? | ?
CC(=O)c1ccc(NC(=O)CSc2nnc(-c3ccncc3)n2-c2ccccc2)cc1 | 5% | -12%
Cc1ccc(-c2cc(C(F)(F)F)n3nc(C(=O)NCC45CC6CC(CC(C6)C4)C5)cc3n2)cc1 | -19% | -10%

# Next part:
molecule | PMP22 txn prim | HTT prom inh
CCOC(=O)NNc1ccc(N(CC)CC(C)O)nn1 (centres undefined) | nt | 13%
CCOc1ccc(CNC(=O)c2ccc(CSc3nc4ccncc4n3Cc3ccc(F)cc3)cc2)cc1 | -6% | ?
Cc1ccc(C(=O)NCCc2csc(-c3cccc(F)c3)n2)cc1C | ? | -16%
Cc1ccc(NC(=O)C2CCN(S(=O)(=O)c3ccc4c(c3)CCCN4C(=O)C3CCC3)CC2)cc1 | ? | ?
COc1cccc(OC)c1C(=O)NCCc1sc(-c2cccc(F)c2)nc1C | -22% | -28%
Cc1cc(NC(=O)CN2CCC(C)CC2)nc2c1c(=O)oc1ccccc12 | -48% | 12%
Cc1c(C(=O)N2CCCC2)oc2c1-c1nn(CC(=O)NCc3cccc(Br)c3)cc1CC2 | -12% | ?
Cc1ccc(S(=O)(=O)NCC(c2ccc(N(C)C)cc2)N2CCOCC2)cc1 (centres undefined) | -3% | -14%
CCOc1ccc(N2CC(NC(=O)c3ccc4c(c3)OCO4)CC2=O)cc1 (centres undefined) | 30% | 1%
Cc1c(Cl)cccc1NC(=O)CCS(=O)(=O)c1ccc2c(c1)oc(=O)n2C | -19% | -5%
Cc1ccc(C(=O)c2oc3ccccc3c2NC(=O)c2cc(-c3ccccc3)on2)cc1F | -19% | -1%
COc1cc(NC(=O)C2CCN(C(=O)c3sc4nc[nH]c(=O)c4c3C)CC2)cc(OC)c1OC | -7% | 2%
Cc1ccc(NC(=O)c2cccn2-c2nnc(N3CCCCC3)s2)cc1Cl | -20% | -18%
CCCCCOc1ccc(NC(=O)Cn2c(-c3nonc3N)nc3ccccc32)cc1 | 4% | -15%
Cc1cc(Nc2ccc(Br)cc2)nc(C)n1 | -14% | 33%[activator]
CC1=C(C(=O)Nc2cccc(C(F)(F)F)c2)C2(CCCCC2)OC1=O | -8% | -25%
COc1ccc2c(c1)c1c(c(=O)n(-c3ccccc3C)c(=O)n1C)n2C | ? | -4%
CCOc1ccc(-c2nc(Cn3c(=O)cc(C)c4c(C)nn(-c5ccc(C)cc5)c43)c(C)o2)cc1 | 20% | 16%
Cc1ccc(CNC(=O)CN2C(=O)C3(SCC(=O)N3c3ccc(F)cc3)c3ccccc32)cc1 (centres undefined) | 0% | -11%
Oc1cc(O)cc(C=Cc2ccc(O)c(O)c2)c1 | nt | 13%
CCOC(=O)c1c(-c2ccc(C)cc2)csc1NC(=O)c1cc(-c2ccc(Cl)cc2)on1 | 1% | -12%
Cc1ccc(NC(=O)Cn2nc(Cc3ccncc3)c3ccccc3c2=O)c(Cl)c1 | -4% | -9%
CC(C)(C)c1ccc(-c2nc(SCCCOc3ccccc3)n3[nH]c(=O)cc3n2)cc1 | ? | -27%
CCN1CCN(c2ncc3c(n2)CCN(CC(C)C)C3)CC1 | 10% | -15%

# Laid out differently: results already given.
Compound: Cc1ccc(NC(=O)c2cccn2-c2nnc(N3CCCCC3)s2)cc1Cl
  PMP22 txn prim = -20% | HTT prom inh = -18%
Compound: CCOC(=O)c1c(-c2ccc(C)cc2)csc1NC(=O)c1cc(-c2ccc(Cl)cc2)on1
  PMP22 txn prim = 1% | HTT prom inh = -12%
Compound: CCN1CCN(c2ncc3c(n2)CCN(CC(C)C)C3)CC1
  PMP22 txn prim = 10% | HTT prom inh = -15%

# (listing goes on)
molecule | PMP22 txn prim | HTT prom inh
COc1ccc(C(=O)NCC(c2ccc3c(c2)OCO3)N2CCOCC2)cc1 (centres undefined) | 8% | -21%
Cc1ccc(S(=O)(=O)c2nc(-c3ccccc3F)oc2NCc2ccccc2)cc1 | -2% | 29%
CCCOc1ccccc1C(=O)N1CCC(c2nc3ccccc3s2)CC1 | ? | ?
CCOc1ccc(Nc2ncnc3c2c(-c2ccccc2)cn3-c2cccc(C)c2)cc1 | -4% | -6%
COc1ccc(CNC(=O)C2Cc3cc(S(=O)(=O)N4CCCCCC4)ccc3N2C(C)=O)cc1 (centres undefined) | 26% | -1%
CN(c1ccccc1)C(CNS(=O)(=O)c1ccccc1)c1ccccc1 (centres undefined) | ? | ?
Cc1nc2ccc(S(=O)(=O)NC(C(=O)NCc3ccccc3Cl)C(C)C)cc2s1 (centres undefined) | -9% | -7%
CC(=O)Nc1ccc(Nc2nc3c(S(=O)(=O)c4cc(C)ccc4C)nnn3c3ccsc23)cc1 | -5% | -3%
Cc1cc2oc(C(=O)N(Cc3ccc(N(C)C)cc3)Cc3ccco3)c(C)c2cc1Cl | ? | -20%
COc1ccc(/C=C/c2nc(C#N)c(N3CCCCC3)o2)cc1OC | ? | -18%
Cc1ccc2c(c1)Cc1c(nc(-c3ccc(Cl)cc3)nc1SCC(=O)N1CCCCC1)O2 | 7% | -3%
Cc1cccc(CCNC(=O)c2ccc3c(c2)nc2n3CCCCC2)c1 | 1% | 12%

# Individual results from above:
# Value of `CCOc1ccc(Nc2ncnc3c2c(-c2ccccc2)cn3-c2cccc(C)c2)cc1` in HTT prom inh: -6%
# Value of `CC(=O)Nc1ccc(Nc2nc3c(S(=O)(=O)c4cc(C)ccc4C)nnn3c3ccsc23)cc1` in HTT prom inh: -3%
# Value of `COc1ccc(C(=O)NCC(c2ccc3c(c2)OCO3)N2CCOCC2)cc1` (centres undefined) in HTT prom inh: -21%

# Further results:
molecule | PMP22 txn prim | HTT prom inh
Cc1cc(Nc2cccc(Cl)c2C)n2nc(Cc3ccccc3)nc2n1 | -45% | -28%
Cn1c(=O)n(-c2ccc(Br)cc2F)c(=O)c2sc3ccccc3c21 | -24% | -9%
Cc1ccccc1C(=O)N1CCN(CCc2ccccn2)CC1 | 6% | -11%
CCn1cc(C(=O)OCC(=O)Nc2cc(C)cc(C)c2)c(=O)c2ccc(C)nc21 | -45% | -14%
CC(C)c1ccc(NC(=O)c2cc3c(s2)-c2ccccc2SC3)cc1 | -1% | -17%

# High-throughput results deposited in PubChem BioAssay by National Center for Advancing Translational Sciences (NCATS).

# Outcome played no part in choosing rows; about 2.6% have a hit in one of these screens.
